D2 PAM: Beta-Arrestin HTS for Positive Allosteric Modulators of the Human D2 Dopamine Receptor: Potentiators. DiscoveRx D2 beta-arrestin cells, luminescence, 90 min; 100% = 57 uM dopamine signal. potentiation, % (test concentration not listed). D(2) dopamine receptor (Homo sapiens), P14416. hit rate 0.23% among 360,000; active = potentiation of 50% or more; inconclusive = 30% to 50%; inactive = 30% or less;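 note: compound concentration not given in the record; tested on top of an EC20 dose of dopamine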
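D2 cells co-treated with compound plus 50 nM dopamine (EC20) for 90 min at 37 deg C to detect potentiation. Beta-arrestin recruitment was read as enzyme-fragment luminescence after 1 h at ambient temperature. Full response was set by 57 uM dopamine.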
Sfp inh: qHTS Assay for Inhibitors of Bacillus subtilis Sfp phosphopantetheinyl transferase (PPTase); hit rate 3.5% among 310,000; Potency, µM, for the others: max response, negative = inhibition, actives largely listed as inhibitors; 4'-phosphopantetheinyl transferase ffp (Bacillus subtilis), Q9F4F7; AID 1490, 2009; Biochemical Sfp PPTase activity, qHTS; active = well fitted inhibition curve with a large enough effect; inconclusive = small, poorly fitted or top-dose-only effect, or another doubt; inactive = no such curve, though single readings can be large or run the other way;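 note: the enzyme is Sfp with the accession as filed and its product quenches rhodamine fluorescence; potency is the fitted concentration of half-maximal effect; 0% = enzyme reaction without inhibitor and -100% = no enzyme wells; top concentration of the series not given in the record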
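Sfp 15 nM + cpd, 15 min RT; start w/ rhodamine-CoA 5 uM, BHQ-2-YbbR 12.5 uM (final); 50 mM Hepes pH 7.6, 10 mM MgCl2, 0.01% NP-40, 0.01% BSA; read 525/598 nm at 0 and 30 min.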
gsp ag: qHTS for Agonist of gsp, the Etiologic Mutation Responsible for Fibrous Dysplasia/McCune-Albright Syndrome: qHTS. gsp mutant cells, cAMP HTRF, 30 min; control for the full effect not named in the record. hit rate 0.13% among 340,000. Potency, µM (doses to about 76.9 µM), for the others: top-dose activation (cAMP increase), most hits filed as activators; active = well fitted activation curve with a large enough effect; inconclusive = small, poorly fitted or top-dose-only effect, or another doubt; inactive = no such curve, though single readings can be large or run the other way; cell line not stated here;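 note: phosphodiesterase inhibitor Ro 20-1724 added with compounds to block cAMP breakdown; potency is the fitted concentration of half-maximal effect; nearly all actives have a fitted effect of over 60% in size; about a fifth of the inactives were tested at one dose only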
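Cells in DMEM/10% FBS with G418 were pretreated with compounds in DMSO plus […] (300 uM stock) for 30 min at 37C. cAMP was measured by HTRF (cAMP-d2 plus anti-cAMP antibody-K) after 30 min at room temperature.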
gsp antagonist: qHTS for Antagonists of gsp, the Etiologic Mutation Responsible for Fibrous Dysplasia/McCune-Albright Syndrome: qHTS | gsp-mutant cells, cAMP HTRF, 30 min; control for the full effect not named in the record | Potency, µM (titrated, usually from 76.9 µM), without a hit: top-dose activity change, negative = inhibition, hits mostly inhibitors | hit rate 0.4% among 340,000 | AID 624288, 2012; active = falling curve of any shape with a large fitted effect; inconclusive = falling curve, mostly with a smaller effect; inactive = flat or rising curve; cell line not stated here;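 note: intracellular cAMP measured with PDE inhibitor Ro 20-1724 present during compound exposure; potency is the fitted concentration of half-maximal effect; % is set by controls: 0 for no effect and ±100 for the full control effect; nearly all actives have a fitted effect of over 65% in size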
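Measurement of cellular cAMP by homogeneous time-resolved fluorescence following a 30 min compound exposure at 37C. The PDE inhibitor […] was present throughout; the assay buffer was DPBS with 0.05% BSA and 0.005% Tween 20.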
ClpP mod: qHTS Assay for Activators of ClpP. Potency, µM (titrated, usually from 57.5 µM), without a hit: top-dose activity change, negative = active. AID 651965, 2013. purified B. subtilis ClpP, FRET peptide cleavage, 20 min. hit rate 1.9% among 340,000. ATP-dependent Clp protease proteolytic subunit (Bacillus subtilis (strain 168)), P80244; active = well fitted falling curve with a large enough effect; inconclusive = small, poorly fitted or top-dose-only effect; inactive = no such curve, though single readings can be large or run the other way; note: potency is the fitted concentration of half-maximal effect; the source files actives as falling curves though it sought activators and does not explain the sign; nearly all actives have a fitted effect of over 65% in size; many hits overshoot -100%
Target sequence (P80244 whole entry, looked up): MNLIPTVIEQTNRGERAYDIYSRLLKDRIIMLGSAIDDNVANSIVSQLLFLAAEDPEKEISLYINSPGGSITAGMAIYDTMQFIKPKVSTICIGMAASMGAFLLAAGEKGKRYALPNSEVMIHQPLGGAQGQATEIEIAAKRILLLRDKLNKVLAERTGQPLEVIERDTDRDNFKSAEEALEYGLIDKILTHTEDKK
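ClpP 10 microg/mL final, pH 8 Tris/KCl buffer with BSA, glycerol, Tween-20; compound pinned in; FRET-FV substrate; RT 20 min; Ex320/Em430; ΔFRET vs ADEP 5.8 microM, DMSO, no enzyme.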
Menin MLL FP FL: qHTS Assay for Inhibitors Targeting the Menin-MLL Interaction in MLL Related Leukemias: Competition With Fluorescein Labeled MLL-derived Peptide. Fluorescence polarization, fluorescein-MLL peptide displacement from menin. FP activity change, % at 61.4 µM. 290,000 tested, under 10 active. AID 1766, 2009; inconclusive = falling polarisation curve, or a change in total fluorescence; inactive = total fluorescence flat and polarisation flat or rising; no compound was filed as active; the % refers to the polarisation; negative = inhibition;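 note: % of control where 0% means no effect; inhibitors lower the polarisation; unlabelled MLL peptide was the positive control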
TRPV1 potentiator: HTS Assay for Compounds that Act as Potentiators of the Vanilloid Receptor 1. Transient receptor potential cation channel subfamily V member 1 (Homo sapiens), Q8NER1. TRPV1-expressing cells, Fluo-8 calcium influx, capsaicin EC20 potentiation; host cell line not named in the record; control for the full effect not named in the record. potentiation, % at 8.33 µM. hit rate 0.02% among 320,000. AID 540277, 2011; active means potentiation above 80%; inconclusive means 30% to 80%; inactive means below 30%; note: 0% is about no effect
Target sequence (Q8NER1 whole entry, looked up): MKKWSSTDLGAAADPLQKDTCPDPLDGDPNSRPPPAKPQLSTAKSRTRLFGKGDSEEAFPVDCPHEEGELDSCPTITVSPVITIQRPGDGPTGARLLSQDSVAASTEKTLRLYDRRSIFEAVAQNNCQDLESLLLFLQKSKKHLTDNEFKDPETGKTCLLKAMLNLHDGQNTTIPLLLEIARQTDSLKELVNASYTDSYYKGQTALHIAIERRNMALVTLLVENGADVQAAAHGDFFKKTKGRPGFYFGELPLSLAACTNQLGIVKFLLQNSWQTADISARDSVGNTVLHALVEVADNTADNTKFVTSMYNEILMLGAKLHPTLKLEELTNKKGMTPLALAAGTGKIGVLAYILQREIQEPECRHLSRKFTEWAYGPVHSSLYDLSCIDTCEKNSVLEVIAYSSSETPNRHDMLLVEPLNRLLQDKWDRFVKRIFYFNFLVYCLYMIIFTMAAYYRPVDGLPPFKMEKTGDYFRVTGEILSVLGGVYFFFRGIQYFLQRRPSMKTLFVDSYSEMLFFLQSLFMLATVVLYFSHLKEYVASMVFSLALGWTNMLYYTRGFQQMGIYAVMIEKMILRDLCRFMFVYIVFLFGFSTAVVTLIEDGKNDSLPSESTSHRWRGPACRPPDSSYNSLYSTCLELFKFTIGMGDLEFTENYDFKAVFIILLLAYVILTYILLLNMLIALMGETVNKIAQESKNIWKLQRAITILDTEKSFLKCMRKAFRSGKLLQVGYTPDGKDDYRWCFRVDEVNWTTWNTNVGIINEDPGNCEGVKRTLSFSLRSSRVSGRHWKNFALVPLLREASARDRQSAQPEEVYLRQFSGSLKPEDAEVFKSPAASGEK
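Cells expressing TRPV1 were dye-loaded with Fluo-8 and read kinetically: 10 s baseline, 3 min after compound (agonist portion), then 2 min after EC20 capsaicin (allosteric enhancer portion). Calcium-bound dye fluorescence at 480/520 nm.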
* = called active by the depositor; ? = inconclusive; nt = no result given; & = joins results of further samples; [ ] = another dose, or the depositor's remark. Not a hit list; about 5.1% have a hit in one of these screens.

SMILES | D2 PAM | Sfp inh | gsp ag | gsp antagonist | ClpP mod | Menin MLL FP FL | TRPV1 potentiator
O=C(CS(=O)(=O)c1ccccc1)Nc1ncc([N+](=O)[O-])s1 | -11 | 20% | -8%[15.4 µM] | nt | nt | 1.3 | 5
Cc1ccc(S(=O)(=O)N(CC(=O)Nc2cccc([N+](=O)[O-])c2)C(=O)N2CCN(C)CC2)cc1 | -14 | nt | -6% | 5% | -1.5% | nt | 1
O=C(O)C1CCCCC1C(=O)Nc1nc(-c2cccs2)cs1 (stereo not given) | -6 | 16% | -50% | -5% | -1.9% | 0.2 | 6
COc1cccc(C(=O)Cn2c(NCCCO)nc3ccccc32)c1 | 9 | ? | -24% | 4% | 0.7% | 7.3 | -25
C[C@H]1O[C@@H](n2cc(F)c(=O)[nH]c2=O)[C@H](O)[C@@H]1O | 23 | 25% | nt | 0% | 1.0% | 3.5&9.1 | 14
O=C(CCNC(=O)c1ccccc1)Nc1nc2ccccc2s1 | 6 | nt | ? | -1% | 3.2% | nt | -4
CCOC(=O)c1[nH]c(C(=O)O)c(OC(=O)CC)c1C | 0 | -10% | 29% | 4% | nt | 5.1 | -10
Cc1ccc(NC(=O)CN(C)C(=O)COC(=O)C2=COCCO2)cc1 | -7 | nt | -10%[15.4 µM] | 18% | 1.9% | nt | 11
CCOC(=O)CSc1nc(N)cc(=O)[nH]1 | -1 | 21% | 1% | -19% | -15% | 0.9 | -4
Cc1ccc(CCNc2ccccc2C)cn1 | -3 | 17% | 19% | -18% | -1.9% | -0.1 | 4
COC(=O)c1ccc(NC(=O)CSC2=Nc3ccccc3C3CC=NN23)cc1 (stereo not given) | 0 | -27% | -1% | -2% | 132% | 5.3 | 15
O=C(O)CCC(=O)Nc1sc2c(c1C(=O)Nc1ccccc1)CCCCC2 | 1 | 13µM* | 7%[15.4 µM] | 3% | 0.4% | ? | -22
O=C(COC(=O)CC1CCCC1)Nc1ccc(Cl)cn1 | -9 | nt | 0% | 6% | -1.0% | nt | -30
CCOc1cc(NC(=O)c2ccccn2)c(OCC)cc1NC(=O)CC(C)C | -5 | 4% | -12% | 6% | -4.0% | -0.9 | -10
C[C@@H](NC(=O)c1nc[nH]c1C(=O)NCC(=O)OCc1ccccc1)c1ccccc1 | 6 | 18% | -22% | -22% | 1.3% | 1.6 | -2
Cc1ccc(S(=O)(=O)CC(=O)Nc2ccc(Cl)cn2)cc1 | -6 | 11% | -6%[15.4 µM] | 7% | 1.4% | -1.7 | -24
O=C1CCC/C(=N/NC(=O)c2ccc(NS(=O)(=O)c3cccs3)cc2)C1 | -4 | 12% | -1%[15.4 µM] | 0% | -0.9% | -8.9 | 5
CCOc1ccc(C(=O)/C=C/c2cn(CN3CCN(C)CC3)c3ccccc23)cc1 | -10 | ? | 2% | -18% | -9.2% | ? | -25
O=C(Nc1ccc(N2CCN(C(=O)c3cccs3)CC2)cc1)c1ccc(Br)o1 | 1 | nt | -12% | ? | 0.5% | nt | -5
CC(C)(C)NC(=O)NC(=O)CN1CCN(S(=O)(=O)c2ccccc2)CC1 | 3 | 10% | -12%[15.4 µM] | -2% | nt | -1.0 | 6
O=C(COC(=O)c1cccnc1Cl)c1ccc(F)cc1 | -5 | 20% | ? | -1% | nt | -2.2 | -5
CSc1ccccc1OCc1cc(C(=O)NCc2csc(C(C)C)n2)no1 | -9 | 0% | -30% | -29% | -0.3% | nt | -14
Cc1ccccc1C(O)c1ccccn1 (stereo not given) | -5 | 14% | -29% | 9% | -0.4% | -0.8 | 11
CC1(C)CC2CC(C)(CN2c2ncnc3ccc(Br)cc23)C1 (stereo not given) | -21 | 8% | ? | -23% | -7.7% | 1.4 | -23
O=C1OC(c2ccccc2)(N(Nc2ccccc2)c2ccccc2)c2ccccc21 (stereo not given) | -15 | nt | 19% | nt | -1.4% | nt | nt
Cc1onc(-c2ccccc2)c1C(=O)Nc1cccc(S(=O)(=O)NC2=NCCC2)c1 | -2 | nt | -45%[inhibitor] | 5% | -2.3% | nt | 3
O=C(c1cccc(S(=O)(=O)Nc2ccc(Br)cc2)c1)N1CCCC1 | 10 | nt | -15% | -4% | -14% | nt | 10
CC(NCc1ccncc1)C12CC3CC(CC(C3)C1)C2 (stereo not given) | -4 | 12% | -4%[15.4 µM] | nt | nt | -0.5 | -1
O=S1(=O)CCO[C@H]2Cc3ccccc3[C@H]2N1Cc1ccc(Cl)cc1 | -3 | 0% | nt | -5% | -2.2%&-0.1% | 2.0 | -7
COC(CNC(=O)c1ccc2c(=O)n(Cc3ccc4c(c3)OCO4)c(=S)[nH]c2c1)OC | -16 | -11% | -30% | 1% | -1.5% | -4.2 | 7

Gathered by group, those above with bromine.
SMILES | D2 PAM | Sfp inh | gsp ag | gsp antagonist | ClpP mod | Menin MLL FP FL | TRPV1 potentiator
O=C(Nc1ccc(N2CCN(C(=O)c3cccs3)CC2)cc1)c1ccc(Br)o1 | 1 | nt | -12% | ? | 0.5% | nt | -5
CC1(C)CC2CC(C)(CN2c2ncnc3ccc(Br)cc23)C1 (stereo not given) | -21 | 8% | ? | -23% | -7.7% | 1.4 | -23
O=C(c1cccc(S(=O)(=O)Nc2ccc(Br)cc2)c1)N1CCCC1 | 10 | nt | -15% | -4% | -14% | nt | 10

Remaining list, next part
SMILES | D2 PAM | Sfp inh | gsp ag | gsp antagonist | ClpP mod | Menin MLL FP FL | TRPV1 potentiator
CCCn1c(SCC(=O)NCc2ccco2)nnc1-c1ccncc1 | -5 | 12% | -28%[15.4 µM] | 6% | nt | 3.3 | 1
COc1ccc(CCNC(=O)CSc2nnnn2Cc2ccc3c(c2)OCO3)cc1OC | -11 | 13% | -8% | -7% | 0.2% | -1.3 | 25
C=Cc1ccc(C2=CC(=O)C[C@H](c3ccc(OC)cc3)C2)cc1 | -6 | nt | 19% | -3% | -2.3% | nt | -1
Cc1ccc(C(=O)NNc2cc(=O)n(C)c(=O)n2C)cc1C | -1 | 11% | 7% | 0% | 0.4% | -4.9 | -16
CC(C)NC(C(=O)Nc1cc(Cl)cc(Cl)c1)c1ccccc1 (stereo not given) | -26 | 8% | 8% | -6% | 28µM* | 2.2 | 2
Cc1nc2cc(NC(=O)N3CCCC3)ccc2n1C | -26 | 5% | -3%[15.4 µM] | 12% | -0.2% | -4.5 | 0
COc1ccccc1C(=O)Nc1nnc(CCc2ccccc2)s1 | -6 | -16% | -33%[inhibitor] | 8% | nt | -3.1 | 9
O=C(CSc1nnc(-c2ccccc2F)o1)NC1CC1 | -1 | nt | 15% | 14% | -0.9% | nt | nt
COc1ccc(C(=O)CN2C(=O)NC3(CCCc4ccccc43)C2=O)cc1 (stereo not given) | -19 | nt | -68%[inhibitor] | -15% | 1.0% | nt | -4
Cc1occc1-c1nc(-c2ccccn2)no1 | 8 | 15% | -17% | 3% | -1.1% | 0.6 | 5
N#Cc1nc(Cc2ccccc2)oc1N1CCN(c2ccccc2)CC1 | -5 | -6% | ? | -1% | -1.7% | 0.7 | -5
CCOC(=O)c1ccc(COC(=O)c2nonc2N)cc1 | -6 | -1% | ? | 7% | -0.7% | -0.4 | -1
O=C(OCc1ccc(Cl)c(Cl)c1)c1cccnc1Cl | 0 | 5% | -2%[15.4 µM] | -3% | nt | -0.7 | 21
CC1(c2ccc([N+](=O)[O-])cc2)Nc2ccccc2S1 (stereo not given) | -11 | 50µM* | -40%[inhibitor] | 3% | 6.4% | 9.5 | -19
CCOC(=O)c1ccccc1NC(=O)CN(c1ccc(OCC)cc1)S(C)(=O)=O | nt | 21% | nt | nt | nt | -1.9 | 8
COC(=O)C1=NNC2(c3ccc(Cl)cc3)C(=O)N(c3ccc(Cl)cc3)C(=O)C12 (stereo not given) | ? | 23% | -1% | 0% | -1.7% | 4.1 | 1
O=C1[C@H]2[C@@H](c3ccccc3)N[C@]3(CCCN(Cc4ccc(F)cc4)C3=O)[C@H]2C(=O)N1Cc1ccccc1 | 0 | nt | -22% | nt | 1.4% | nt | nt
C[C@H]1CCC[C@@]2(O[C@@H](CCO)C[C@H](O)[C@H]2O)O1 | 1 | nt | nt | 12% | -5.6% | nt | nt
O=C(CCc1ccccc1)OCCN1CCOCC1 | -10 | 3% | -15% | 10% | 1.0% | 1.4 | -6
COc1ccc(CN(C)Cc2c(O)ccc3ccccc23)cc1 | -31 | -3% | 25% | -1% | 3.6% | -0.2 | -31
O=C(CNC(=O)c1ccccc1)OCc1cccc([N+](=O)[O-])c1 | -20 | 5% | -45%[inhibitor] | -6% | 0.9% | 0.3 | 1
COc1ccc(C2=NN(CN3C(=O)C(=O)c4ccccc43)C(c3ccc(C)cc3)C2)cc1 (stereo not given) | -22 | -1% | -23% | -12% | 4.2% | 0.1 | 0
Cc1cccc(C)c1NC(=O)CNC(=O)c1ccc2c(c1)OCCO2 | -6 | nt | 14% | -12% | -11% | nt | 4
CC(C)(C)c1ccc(C(=O)OCC(=O)NCc2ccco2)cc1 | -1 | nt | 12% | 13% | 0.1% | nt | -11
Nc1nc(Nc2ccccc2)nc(C(F)(F)F)n1 | -1 | 24% | 17% | 9% | nt | 3.2 | 3
O=C(N/N=C/c1ccc(Cl)cc1Cl)c1cccc(N2CCCC2=O)c1 | -4 | -42% | 1%[15.4 µM] | 1% | nt | nt | 13
C=CCNC(=S)N1CCC(C(=O)c2ccc3c(c2)OCCO3)CC1 | -6 | 6% | 11% | -5% | -8.9% | 5.9 | -32

Assay outcomes deposited in PubChem by National Center for Advancing Translational Sciences (NCATS).
